From PubChem
PMP22 txn prim: Cell-based coincidence reporter assay to measure PMP22 gene transcription in S16 Pmp22-F2sN cells - Primary screen; S16 Pmp22-F2sN Schwann cells (luciferase reporters placed in the Pmp22 gene), FLuc/NLuc coincidence luminescence, 24 h; Potency, µM (top dose mostly 57.5 µM), for the others: at the top dose activity change, negative = inhibition, most hits filed as inhibitors; 43,000 compounds, 2% hits; AID 1508649, 2021; active = clear falling dose curves in both reporters; inconclusive = both reporters move, but less clearly or upward; inactive = either reporter flat; the % is the NLuc reporter signal; also: % is scaled to controls: 0 for no effect and ±100 for the full control effect; some results filed as inactive show a strong effect at the top dose
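Luminescent read-out of sequential FLuc and NLuc signals from a reporter embedded in the Pmp22 3' UTR of S16 Schwann cells, taken after 24 h compound exposure at 37C; compounds reducing both signals score as inhibitors of expression.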
HTT promoter inh: Primary qHTS for Identification of Small Molecule Inhibitors of Huntingtin Promoter Activity; 48,000 compounds, 0.93% hits; Potency, µM (titrated, usually from 57.5 µM), without a hit: at the top dose activity change, negative = inhibition, actives largely listed as inhibitors; HEK293 HTT promoter firefly luciferase reporter (activity 0% = vehicle and -100% = no light), 24 h; active = well fitted inhibition curve with a large enough effect; inconclusive = small, poorly fitted or top-dose-only effect; inactive = no such curve, though single readings can be large or run the other way; also: nearly all actives have a fitted effect of over 50% in size
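HEK293 Fluc reporter, 2,500 cells/well, 24 h pre-culture; cpds up to 57.5 uM final, 24 h 37 degrees C; Dual-Glo, 10 min RT; normalized vehicle = 0%, zero RLU = -100%.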
Numbers without * were called inactive; u = inconclusive; x = no result given; [ ] = another dose, or the depositor's remark. Potency is read from the fitted curve at half-maximal effect. These rows are one share of the data; the hit share may differ from the screen's.

Results follow in this order: HTT promoter inh | PMP22 txn prim
- Cc1cccc(CN2CCN(CC(=O)Nc3c(C)cccc3C)S2(=O)=O)c1
    -6% | -20%
- COc1cc(NC(=O)CC(C)n2nc(C)cc2C)cc(OC)c1 (configuration not stated)
    -1% | u
- CC(C)N(C(=O)Cn1cc(S(=O)(=O)Cc2ccc(C(F)(F)F)cc2)c2ccccc21)C(C)C
    -15% | -47%
- COc1ccc(CCNC(=O)Cn2nnc(-c3cccc(C(F)(F)F)c3)n2)cc1OC
    17% | -3%
- Cn1nnnc1SCCCNCc1cccc(OCc2ccccc2F)c1
    -3% | -23%
- Cc1cc(C)c(NC(=O)c2cc(C)nc3c2c(C)nn3-c2cccc(F)c2)c(C)c1
    -2% | -2%
- COc1ccc(NC(=O)c2nn(C)c3c2CSc2ccc(C)cc2-3)cc1OC
    u | -29%
- O=C(O)c1ccc2oc(=O)n(Cc3ccccc3)c2c1
    8% | -38%
- Cc1onc(-c2c(Cl)cccc2Cl)c1C(=O)Cl
    9% | x
- CC[C@@H]([C@H](C)O)n1ncn(-c2ccc(N3CCN(c4ccc(OC[C@@H]5CO[C@@](Cn6cncn6)(c6ccc(F)cc6F)C5)cc4)CC3)cc2)c1=O
    1% | x
- COc1cccc(Nc2nnc(-c3cc4ccc(O)cc4oc3=O)s2)c1
    5% | 6%
- COc1cccc(N2CCN(c3nc4ccc(C(=O)c5ccccc5)cc4n4c(C)nnc34)CC2)c1
    6% | -8%
- Cc1c(Cl)cccc1-n1nc(C)c2c(C)cc(=O)n(CC(=O)N3CCCc4ccccc43)c21
    -27% | u
- Cc1cccc(Nc2ncc(NC(=O)c3cccc(F)c3)c(Nc3cccc(C)c3)n2)c1
    u | -25%
- CC(=O)N1CCCc2cc(S(=O)(=O)N3CCC(C(=O)NCc4cccc(C)c4)CC3)ccc21
    -26% | -9%
- COCCNC(=O)Cn1cc2c(n1)-c1c(oc(C(=O)N3CCCC3)c1C)CC2
    0% | -1%
- CCn1cc2nc(SCC(=O)Nc3ccc(OC)cc3OC)n(Cc3ccc(Cl)cc3)c(=O)c2n1
    -28% | -22%
- CCC1CCCCN1C(=O)CSc1nnc(-c2ccc(OC)c(OC)c2)o1 (configuration not stated)
    -18% | -14%
- Cc1ccccc1COC(=O)c1nn(-c2ccccc2)nc1N
    30% | -4%
- Cc1ccccc1CNC(=O)CN1CCSc2ccccc21
    4% | -22%
- Cc1cnn(C)c1C(=O)Nc1cc(Nc2ccc3c(C=Cc4ccccn4)n[nH]c3c2)ccc1F
    u | x
- COc1cccc(CNC(=O)c2ccc(CNS(=O)(=O)c3ccc(C)cc3)cc2)c1
    -13% | -17%
- O=C(Nc1cc(-c2ccc(Cl)cc2)no1)c1ccc(F)cc1
    15% | -53%
- Cc1ccc(-n2nc3c(=O)n(CCCC(=O)NCCc4ccccc4Cl)nc(C)c3c2C)cc1
    -16% | -18%
- CCc1ccc(OCC2c3cc(OC)c(OC)cc3CCN2C(=O)COc2ccccc2)cc1 (configuration not stated)
    u | u
- Cc1ccc(OCC(=O)N(Cc2ccco2)Cc2ccc(C)o2)cc1
    -28% | -1%
- CC(NC(=O)c1ccc2c(c1)CCN2S(C)(=O)=O)c1ccccc1 (configuration not stated)
    -9% | -16%
- COc1ccc(C(=O)NCC(c2cccnc2)N2CCN(c3ccccc3OC)CC2)cc1 (configuration not stated)
    u | -8%
- CCCn1c(=O)c2sccc2n2c(CCCC(=O)Nc3ccc(Oc4ccc(Cl)cc4)cc3)nnc12
    u | u
- Cn1nnnc1SCCCNCc1ccc(Cl)cc1
    31%[activator] | 1%
- COc1cc(C(=O)Nc2ccccc2OCc2cc(=O)n3cc(C)sc3n2)cc(OC)c1OC
    -10% | -11%
- CCC1CCCCN1CCCNC(=O)CN1C(=O)CSc2ccc(S(=O)(=O)N3CCC(C)CC3)cc21 (configuration not stated)
    -16% | u
- O=C(CN1C(=O)COc2ccc(S(=O)(=O)N3CCCCC3)cc21)NCc1ccccc1Cl
    -14% | -2%
- CCCCNc1nc(Oc2ccc(OCC)nn2)nc(N2CCOCC2)n1
    19% | -14%
- O=C(Cn1c(=O)n(-c2ccc(F)c(Cl)c2)c(=O)c2sc3ccccc3c21)NC1CCCC1
    -15% | -11%
- Cc1cc2c(cc1S(=O)(=O)NCc1ccc(F)cc1)OCCN2C
    -2% | -5%
- Cc1ccc(-n2cc3c(c2-c2ccccc2Br)c(=O)n(C)c(=O)n3C)cc1N
    -7% | -27%
- NC(=O)c1ccccc1NC(=O)c1ccc(-c2ccc(Br)cc2)o1
    73%[activator] | -5%
- Cc1ccc(S(=O)(=O)C2(C(=O)Nc3ccc(Cl)c(C(F)(F)F)c3)CC2)cc1
    -3% | -21%
- O=C(CSc1nc2ccccc2nc1Cc1ccccc1)NCc1ccccc1Cl
    10% | -25%
- COc1cc(OC)c(NC(=O)Nc2ccccc2OCc2cc(=O)n3cc(C)ccc3n2)cc1Cl
    15% | -2%
- CCOC(=O)c1ccc(CN(Cc2ccc(F)cc2)S(=O)(=O)c2ccc(F)c(C(=O)Nc3ccc(Cl)cc3F)c2)cc1
    -31% | -21%
- Cc1nc2ccn(Cc3cccnc3)c(=O)c2cc1C(=O)N1CCN(c2ccccc2)CC1
    9% | -7%
- CCOC(=O)CN(Cc1ccccc1)C(C(=O)NC1CCCCC1)c1ccc(C)cc1 (configuration not stated)
    u | u
- COc1ccc(C2=C(C)C(=O)N(Cc3ccc(C(=O)Nc4ccc(C)c(C)c4)cc3)S2(=O)=O)cc1
    u | -21%
- COc1ccc(-c2nn(-c3cccc([N+](=O)[O-])c3)c3c2cnc2cc4c(cc23)OCO4)cc1
    -27% | -14%
- COc1ccc(CNC(=O)C(CC(C)C)NS(=O)(=O)c2ccc3c(c2)oc(=O)n3C)cc1 (configuration not stated)
    -18% | 3%
- CC(=O)c1ccc(NC(=O)CSc2nnc3ccc(-c4ccc(Br)cc4)nn23)cc1
    -20% | -16%
- O=C(OCc1cc(=O)n2nc(C3CCCCC3)sc2n1)c1ccc(F)cc1
    -5% | u
- CCCCn1c(SCC(=O)Nc2cccc(OC)c2)nc2c(sc3ccccc32)c1=O
    -12% | u

Additional compounds follow:
Results follow in this order: HTT promoter inh | PMP22 txn prim
- COCCNC(=O)CCCn1c(SCC(=O)c2ccc(F)cc2)nc2c(sc3ccccc32)c1=O
    -5% | -16%
- COc1ccc(C)cc1NC(=O)N1CCC(CN2CCC(C)CC2)CC1
    -4% | u
- CCOC(=O)c1c(S(=O)(=O)N2CCN(c3cc(Cl)ccc3C)CC2)c(C)n(C)c1C
    u | u
- COC(=O)c1c(NC(=O)c2cccc(OC)c2)sc2c1CCC(C(C)(C)C)C2 (configuration not stated)
    -25% | -6%
- CCCn1c(CN2CCN(c3ccc(OC)cc3)CC2)nc2c1c(=O)[nH]c(=O)n2C
    -12% | u
- CCCCOc1ccc(C(=O)Nc2nc3c(s2)CC(C)CC3)cc1 (configuration not stated)
    -27% | -9%
- COc1ccc(NC(=O)c2cc3c(=O)n(C)c4ccccc4c3s2)cc1Cl
    -5% | -2%
- Cc1ccc(OC(=O)CSc2nnc(-c3ccc4c(c3)OCO4)o2)c(C)c1
    -23% | 3%
- CCOC(=O)c1cc(-c2ccccc2)n(CCC(=O)Nc2cc(C)cc(C)c2)c1C
    u | -29%
- Cc1nc2c(c(C)c1CCC(=O)NCc1ccc(F)cc1)c(=O)n(C)c(=O)n2C
    6% | -5%
- CCN(C(=O)CN(C)S(=O)(=O)c1ccc2c(c1)c(=O)n(C)c(=O)n2C)c1ccc(OC)cc1
    -12% | u
- O=C(c1ccc(F)cc1)N1CCC(c2nc3ccccc3o2)CC1
    -18% | 20%
- Cc1ccc(C2CC(=O)Nc3c2c(C)nn3-c2nc(C)cc(C)n2)c(C)c1 (configuration not stated)
    4% | -14%
- Cc1ccc(NC(=O)CN2c3ccccc3S(=O)(=O)c3ccccc32)cc1F
    -23% | 6%
- COc1ccc2nc(N(Cc3cccnc3)C(=O)c3ccco3)sc2c1
    10% | 0%
- COc1ccc(N2CCN(C(=O)c3cn(CC(C)C)c(=O)c4c3c3ccccc3n4C)CC2)cc1
    -19% | u
- COc1ccc2c(c1)c(CC(=O)OC/C=C(\C)CC/C=C(\C)CCC=C(C)C)c(C)n2C(=O)c1ccc(Cl)cc1
    6% | x
- COc1ccc(N2CC(NC(=O)C3CCCC3)CC2=O)cc1 (configuration not stated)
    -12% | 9%
- Cc1ccccc1OCC(=O)Nc1ccc2nc(SCC(=O)N3CCOCC3)sc2c1
    -21% | 6%
- Cc1cccc(NC(c2cccc(F)c2)c2ccc3ccc(C)nc3c2O)n1 (configuration not stated)
    -2% | u
- Cc1ccc(-c2cc3c(n2-c2ccc(C)cc2)CC(C)(C)CC3=O)cc1
    -3% | 2%
- COc1ccc(CCNC(=O)CCc2c(C)c3cc4c(C)c(C)oc4cc3oc2=O)cc1
    1% | -37%
- Cc1ccc(NC(=O)C(Cc2ccccc2)N2Cc3ccccc3C2=O)cc1Cl (configuration not stated)
    u | -30%
- COc1ccc(CC(=O)Nc2ccc3nc(N4CCCCC4)cc(C)c3c2)cc1
    -24% | u
- Cc1ccc2occ(CC(=O)Nc3ccc(Cl)c(C(F)(F)F)c3)c2c1
    u | u
- Cc1c(Cl)cccc1NC(=O)CN1C(=O)CSc2ccc(S(=O)(=O)N3CCCC3)cc21
    -24% | -11%
- CCC(=O)N1c2ccc(S(=O)(=O)N3CCN(c4ccccc4)CC3)cc2CC1C (configuration not stated)
    -7% | u
- Cc1nc2ncnn2c(C)c1CCC(=O)N1CCN(c2cccc(Cl)c2)CC1
    -2% | -52%
- CCCN(CCC)CCNC(=O)Cn1cnc2sc(C)c(S(=O)(=O)N3CCC(C)CC3)c2c1=O
    -16% | -8%
- CCN(CCCNC(=O)c1cc2c(=O)n(C)c3ccccc3c2s1)c1ccccc1
    -17% | u
- CNC(=O)[C@H](CC1=CN=C2C=CCC=C12)NC(=O)[C@@H](CC(=O)NO)CC(C)C
    u | x
- CCC1=Nc2cc(C(=O)NCCCOC)ccc2Sc2ccc(Br)cc21
    u | 1.3µM*
- Cc1ccc(N2C(=O)c3oc4cc(C)c(C)cc4c(=O)c3C2c2cccc(O)c2)nc1 (configuration not stated)
    -16% | 37%
- Cc1ccc(C2C=C(c3ccccc3)Nc3nc(NS(=O)(=O)c4ccc(C)cc4)nn32)cc1 (configuration not stated)
    -3% | u
- Cc1ccc2nc(N(Cc3cccnc3)C(=O)c3ccco3)sc2c1
    28% | 7%
- COc1ccc2c(c1)CC(C(=O)NCc1ccc(F)cc1)CO2 (configuration not stated)
    -14% | 4%
- CCCCCOc1ccc(NC(=O)Cn2c(-c3cncs3)nc3ccccc32)cc1
    -29% | u
- Cc1ccc(C(=O)Nc2sc3c(c2C(=O)NCc2ccco2)CCC(C(C)(C)C)C3)cc1 (configuration not stated)
    -1% | -10%
- CCC(C(=O)Nc1cccc(Cl)c1C)n1nc(C)c2sc3ccccc3c2c1=O (configuration not stated)
    -2% | -17%
- CCCCN(C)C(=O)C1CCC(CNS(=O)(=O)c2ccc3c(c2)CC(C)N3C(C)=O)CC1 (configuration not stated)
    u | u
- CCc1nn2c(=O)cc(COC(=O)C3CCCCC3)nc2s1
    -14% | 77%
- CCOC(=O)c1cccc(NC(=O)CSc2ncc3c(n2)-c2ccc(Cl)cc2N(Cc2ccccc2)S3(=O)=O)c1
    -17% | u
- O=C(NCC(c1cccnc1)N1CCc2ccccc21)c1cccc(F)c1 (configuration not stated)
    -30% | -25%
- O=c1c2oc3ccccc3c2n(Cc2cccc(F)c2)c(=O)n1Cc1ccco1
    -11% | 6%
- COc1ccc(NC(=O)c2sc3nc4c(cc3c2N)CCCCCC4)cc1OC
    -31% | -15%
- COc1ccccc1N1CCN(c2cc(C)nc3nncn23)CC1
    u | -28%
- Cc1ccc(C(=O)Nc2ccc3oc(-c4ccc(C(C)(C)C)cc4)nc3c2)cc1
    u | -19%
- O=C(Nc1ccc(F)cc1F)N1CCN(c2ccc(Cl)c(Cl)c2)CC1
    u | u
- CCOc1ccccc1CNC(=O)c1cnc2c(-c3ccc(OCC)c(OCC)c3)c(C)nn2c1C
    u | u
- CCOc1ccc(CCNC(=O)c2ccc(CS(=O)Cc3cccc(Cl)c3)o2)cc1 (configuration not stated)
    -22% | -9%

Full records as entered above.
COc1ccc(-c2nn(-c3cccc([N+](=O)[O-])c3)c3c2cnc2cc4c(cc23)OCO4)cc1 is listed as HTT promoter inh: -27%; PMP22 txn prim: -14%
Cc1ccc(-n2cc3c(c2-c2ccccc2Br)c(=O)n(C)c(=O)n3C)cc1N is listed as HTT promoter inh: -7%; PMP22 txn prim: -27%
Cc1ccc(NC(=O)C(Cc2ccccc2)N2Cc3ccccc3C2=O)cc1Cl (configuration not stated) is listed as HTT promoter inh: u; PMP22 txn prim: -30%
